Screens (PubChem BioAssay)
NPYLR7 agonist = activates Aedes aegypti NPYLR7 receptor; actives 0.15% (n = 270,000); HEK293T NPYLR7/Galpha15, GCaMP6s calcium fluorescence; activation, % at 10 µM; in the data active = activation above about 40%;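 also: 0% = vehicle and 100% = reference agonist at the receptor; some compounds past the cut are filed as inactive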
NPYLR7 agonist max-min = also measured in NPYLR7 agonist; calls as there; activation, %; measured here: Max-Min RFU normalised activation; some inactives read as strong as hits;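 span of the calcium signal over five minutes; 0% = vehicle and 100% = native peptide agonist; compound fluorescence can raise it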
The depositor's hits bear a star; & = joins results of further samples. Not all compounds are listed; the hit share may differ from the screen's.

Structure	NPYLR7 agonist	NPYLR7 agonist max-min
Cn1cc(C(=O)N2CCN(C(=O)C3CC3)CC2)c2nn(-c3ccccc3)c(=O)c-2c1	0	-1
CC(=O)N1c2ccccc2N=C2CC(C)(C)CC(=O)C2C1c1cccc(Cl)c1 (stereo not given)	-6	-5
Cn1c(NC(=O)c2cc(Br)ccc2Cl)cc(=O)n(C)c1=O	20	24
Cc1csc(=Nc2ccc(Cl)c(Cl)c2)n1N=Cc1ccccn1	1	-1
COc1ccc(-c2cc3ccc(OS(=O)(=O)c4ccccc4)cc3oc2=O)cc1	-3	3
FC(F)(F)c1ccccc1/C=N\Nc1nc(N2CCOCC2)nc(N2CCOCC2)n1	-3	-7
O=C(NCc1n[nH]c(=S)n1-c1cccc(Cl)c1)c1c(F)cccc1Cl	-4	-5
COc1ccccc1N(C)CC(=O)NC12CC3CC(CC(C3)C1)C2	2&6	3&5
Cc1cc(C)cc(N2CCC(N3CCN(Cc4cccc(C)n4)C(CCO)C3)CC2)c1 (stereo not given)	2	0
COc1cc(F)c(S(=O)(=O)Nc2ccc(C#N)cc2)cc1OC	-2&13	-1&10
Cn1c(=O)n(CC(=O)NC(c2ccccc2)C2CC2)c2ccccc21 (stereo not given)	-1	1
Cc1cc(C)c(NC(=O)C[C@H](CC(=O)O)c2cccc3ccccc23)c(C(=O)N2CCC3(CCCC3)CC2)c1	4	-13
COc1cc(CN(C)S(=O)(=O)c2ccccc2OC)ccc1SC	10	7
Cn1c(=NC(=O)C2CCCN(c3cnccn3)C2)sc2ccccc21 (stereo not given)	4	-1
COCC(=O)N1CCN(c2ncnc3c2nnn3C)CC1	-1	26
CN(C)CCCN1C(=O)CCCCc2sc3c(c21)CCCC3	-3	-4
Cn1c(-c2cccc(C(F)(F)F)c2)cc2cnc(Nc3cccnc3)cc21	-15	-15
COC(C)(C)c1noc(CC2CCCN(C(=O)NCC(C)C)C2)n1 (stereo not given)	3	3
C=CCn1c(=O)c2c(nc3n(-c4ccccc4O)c(C)cn23)n(C)c1=O	6	2
Cc1nc(NC#N)[nH]c(=O)c1Oc1ccccc1	-2	-4
Cc1cccc(-c2nnc(SCC3CNC(=O)O3)n2C)c1 (stereo not given)	2	11
CCCc1cc(N2CCCC2)n2nc(C)c(-c3ccccc3)c2n1	4	10
CC(NC(=O)c1ccc(Br)cc1)C(=O)N(C)Cc1ccsc1 (stereo not given)	12	7
N#C/C(=N\Nc1cccc(C(F)(F)F)c1)c1nc2ccccc2s1	-1	-5
CS(=O)(=O)c1ccc(C(NC(=O)CC(c2ccccc2)c2ccccc2)c2ccc3c(c2)CCO3)cc1 (stereo not given)	-14	-20
CCN(CC)S(=O)(=O)c1ccc(N/N=C\c2cc(C)n(-c3ccc(C)cc3)c2C)c([N+](=O)[O-])c1	-2	-4
O=C1CN(c2ncnc3nc[nH]c23)CCN1Cc1cccc(F)c1	0	-1
O=C(/C=C/c1ccc(-c2ccccc2Cl)o1)c1ccco1	0	-2
CCCCN(CC(=O)Nc1c(-c2ccccc2)c(C)nn1-c1ccc(C)cc1)C(=O)Nc1ccc(C(F)(F)F)cc1	6	10
CN1CCc2cc(NC(=O)Nc3cccnc3)ccc21	5	-9
O=C(NCC1CCCO1)C(C1CCCC1)N1CCN(C(=O)c2cccs2)CC1 (stereo not given)	-6	0
Cc1cc(N2CCSCC2)ccc1NC(=O)c1cc2c(cc1O)CCCC2	2	-5
Cc1ccccc1C1c2ccsc2CCN1C(=O)CN(CC1CC1)S(=O)(=O)c1cc(Cl)ccc1Cl (stereo not given)	0	2
O=C(NC[C@@H]1CCCO1)c1cncn1-c1ccc(-c2cc(C(F)(F)F)cc(C(F)(F)F)c2)cc1	5	1
CCOC(=O)c1c(N=Cc2c(O)[nH]c(=O)[nH]c2=O)sc(C(=O)OC)c1CC(=O)OC	0	-4
CCS(=O)(=O)Oc1cccc(CN(CC(C)C)C(=O)Nc2ccc(C)c(C)c2)c1	14	12
CN1CCC(=NNC(=O)Cc2cn3ccsc3n2)CC1	3	0
Cc1ccc[n+](C2=C(c3c(C(C)C)[nH]n(-c4ccccc4)c3=O)C(=O)N(C3CCCCC3)C2=O)c1	7	11
COCCN1C(=O)N(CCc2ccccc2)C(=O)C12CCN(Cc1cccc3cccnc13)CC2	8	-7
O=C(NCCNC(=O)[C@H]1CCCN1C(=O)c1ccc(Cl)cc1)c1ccccc1	0	-4
O=C(O)c1cccnc1CN1CCc2[nH]nc(C3CCC3)c2C1	-1	-5
CC(=O)Nc1ccc(C(=O)NCC(c2cccs2)N2CCC(C)CC2)cc1 (stereo not given)	4	1
CC(=O)c1[nH]c(C)c(C(=O)NC2CCCCC2C)c1C (stereo not given)	7	0
Cc1ccc(CNC(=O)C(C)N2CCCC(C(N)=O)C2)cc1 (stereo not given)	-3	-6
O=C(c1ccc(Cl)cc1)N(Cc1cccnc1)Cc1nccn1Cc1ccc(F)cc1	0	9
Cc1cccnc1NCCNC(=O)c1nc2ccccc2c(=O)[nH]1	-3	7
O=c1c2c3c(sc2nc(CN2CCCC2)n1CC(O)c1ccccc1F)CCCC3 (stereo not given)	3	1
CN(C(=O)c1cc2ccccc2oc1=O)C1CCCN(C2Cc3ccccc3C2)C1 (stereo not given)	5	0
Cc1cc(C)n(CCC(=O)N2CCCC(Nc3ccc4c(c3)OCCO4)C2)n1 (stereo not given)	0	-7
Cc1cc(CNC(=O)CCc2c(C)nc3c4ccccc4nn3c2C)ccc1F	-6	-7
O=C(CCCCSc1nnc(Cc2ccccc2)n1-c1ccc(Cl)c(Cl)c1)NCc1cccc(C(F)(F)F)c1	2	8
CCOc1ccc2oc(C(=O)NCCNC(=O)c3oc4ccc(OCC)cc4c3C)c(C)c2c1	5	-1
O=c1c2nccn2ccn1Cc1cc(-c2ccccc2)on1	-5	-6
CCOC(=O)c1c(NC(=O)C2CCCC2)sc(C(C)=O)c1C	0	0
O=C(CSc1nc2ccccc2s1)Nc1ccc(F)cc1	6	18
COc1cc(C2C3C(=O)CC(C)(C)CC3=Nc3ccccc3N2C(=O)C(F)(F)F)cc(OC)c1OC (stereo not given)	-9	-7
CS(=O)c1nncn1Cc1nc2ccccc2s1 (stereo not given)	4	2
COC(=O)CN1CCN(Cc2ccccc2)C(C)C1=O (stereo not given)	0	3
COc1cccc(C(=O)N(C)C(C)c2nc3ccccc3c(=O)n2-c2cccc(Cl)c2C)c1 (stereo not given)	3	-1
NC(=O)COc1nsnc1N1CCOCC1	-4	-3

Continuation:
Structure	NPYLR7 agonist	NPYLR7 agonist max-min
Cc1cc(NC(=O)COc2ccc(F)c(Cl)c2)no1	11	5
CC(C)(C)CN1CCCC(O)(CNCCc2n[nH]c(=O)[nH]2)C1=O (stereo not given)	15	9
Cc1ccc(C)c(Cn2c(CN3CC(C)OC(C)C3)nc3c2c(=O)n(C)c(=O)n3C)c1 (stereo not given)	-11	-13
O=C(CC1CCCCC1)OCc1ccon1	-4	-9
S=C1NC2(CCCCC2)Nc2sc3c(c21)CCCC3	9	1
COc1ccc(N2CCN(CC3=CCC4CC3C4(C)C)CC2)cc1 (stereo not given)	-2	-3
Cn1cc(CN2C[C@@H]3CCC[C@H]2C3)c(-c2cccc(Cl)c2)n1	3	0
COC(=O)N(Cc1ccccc1)[C@H]1CCN(C)C[C@@H](O)C1	5	4
CC(C)Cc1nnc2sc(CCc3cn4ccccc4n3)nn12	0	0
c1ccc(CCCN2CCCN(Cc3cc4n(n3)CCCNC4)CC2)cc1	-8	-14
Cc1ccc(-n2c(=O)c3ccccc3n(CC(=O)NCc3cccnc3)c2=O)cc1Cl	24	36
CC(=O)Oc1c(-c2ccc(NC(=O)c3ccc(C(F)(F)F)cc3)cc2)c(-c2ccc3c(c2)OCO3)nn1-c1ccc(F)cc1	0	1
Cc1oc(-c2cccs2)nc1CN1CCCC(C(=O)c2ccc3c(c2)OCO3)C1 (stereo not given)	-2	-5
CCCc1nc2sc3ccccc3c(=O)c2c(=O)n1Cc1ccccc1	4	2
COc1ccc(C(C)(O)c2nc(-c3ccoc3)cs2)cc1 (stereo not given)	7	6
O=C1COCc2cc(-c3cccnc3)ccc2N1Cc1cc(F)cc(F)c1	6	3
CC(C)Cn1c(=S)[nH]c2sc3c(c2c1=O)CCC(C)C3 (stereo not given)	8	5
O=C(NCc1ccc(-c2ncc(-c3ccc(N4CCOCC4)cc3)[nH]2)cc1)c1cccc(Cl)c1Cl	0	10
C[C@@H](Nc1nccc(CCC(F)(F)F)n1)C(N)=O	-5	-3
COCCN(CC(=O)N1CCc2sccc2C1c1ccc(C)cc1)C(=O)C(c1ccccc1)c1ccccc1 (stereo not given)	-2	4
CCn1c(C)cc(C)c(C(=O)N2C[C@@H]3C4CCC(CC4)[C@@H]3C2)c1=O	2	1
COc1cccc(-n2cc(CN(C)Cc3cc(-c4ccccc4)no3)cn2)c1	4	2
CCC1CCCN(C(=O)Nc2cccc(COC)c2)C1 (stereo not given)	-2	-4
CCCCNC(=O)c1c(N)n(/N=C\c2ccc(O)c(O)c2)c2nc3ccccc3nc12	-7	-10
CCc1nc2ccc(C(=O)N(C)C(C)C)cn2c1N(CC)CC(=O)N(C)C	12	11
C=CCn1nc(C(=O)O)c2c1CCC(NCc1ccoc1)C2 (stereo not given)	22	13
Cc1noc(C)c1C(=O)N(C)C(C)c1ccccc1F (stereo not given)	26	14
CCOC(=O)c1cnn(-c2nc3c(C)cccc3s2)c1C	0	-1
CCCC1CCCN(C(=O)c2c[nH]c3ncccc23)CC1 (stereo not given)	2	0
CN(Cc1ccc(F)cc1)C(=O)CNC(=O)c1cccs1	1	2
COC(C(=O)NN=C1CCN(C)CC1)c1ccccc1 (stereo not given)	-15	-18
O=c1cc(CSc2nnc3ccccn23)c2cc3c(cc2o1)CCC3	6	8
COC(=O)Cn1c(=O)c2c(nc3n2CCN3c2cc(C)ccc2C)n(C)c1=O	-5	-6
CN(C)c1nc(N)nc(COc2ccc(Cl)c3ccccc23)n1	8	1
O=S(=O)(NNc1c(F)c(F)cc(F)c1F)c1ccc(Cl)cc1	4	3
